# Source: PubChem (National Center for Advancing Translational Sciences (NCATS))
# Vaccinia mCherry: qHTS for Stage-Specific Inhibitors of Vaccinia Orthopoxvirus: mCherry Reporter Primary qHTS. Vaccinia virus mCherry reporter infection, fluorescence; about a quarter of the inactives have no number. Potency, µM (top dose mostly 36.5 µM), for the others: top-dose activity change, negative = inhibition, most hits filed as inhibitors. 310,000 compounds, 0.63% hits; active = well fitted inhibition curve with a large enough effect; inconclusive = small, poorly fitted or top-dose-only effect; inactive = no such curve, though single readings can be large or run the other way; tested in A549 cells; further: nearly all actives have a fitted effect of over 35% in size; inactives centre near -10
# VACV Venus inh: qHTS for Stage-Specific Inhibitors of Vaccinia Orthopoxvirus: Venus Reporter Primary qHTS | Vaccinia virus Venus reporter expression, fluorescence | Potency, µM (highest dose often 36.5 µM), for the others: top-dose activity change, negative = inhibition, most hits filed as inhibitors | 330,000 compounds, 0.46% hits; active means well fitted inhibition curve with a large enough effect; inconclusive means small, poorly fitted or top-dose-only effect; inactive means no such curve, though single readings can be large or run the other way; tested in A549 cells; further: nearly all actives have a fitted effect of over 30% in size; inactives centre near -10
# Numbers without * were called inactive; i = inactive; ? = inconclusive; / = no result given; & = joins results of further samples; [ ] = remark or other dose. On the % scale 0 is the no-effect control and ±100 the full control effect; potency means the concentration at half of the fitted maximal effect.
# The first 2 compounds (preview)
Molecule,Vaccinia mCherry,VACV Venus inh
O=S(=O)(Nc1ccc(N2CCCCC2)cc1)c1cccc2cccnc12,/,-18%
Cc1ccc2[nH]c(=O)c(CN(CCO)Cc3nnnn3Cc3ccccc3)cc2c1,20%,-13%

# Main list, from the first entry:
Molecule,Vaccinia mCherry,VACV Venus inh
O=S(=O)(Nc1ccc(N2CCCCC2)cc1)c1cccc2cccnc12,/,-18%
Cc1ccc2[nH]c(=O)c(CN(CCO)Cc3nnnn3Cc3ccccc3)cc2c1,20%,-13%
CCCNC(=O)c1csc2c1CCCCC2,?,-25%
CCCOc1ccc(N2C(=O)CC(SC(=NC)Nc3ccc(F)cc3)C2=O)cc1 (centres undefined),-6%,0%
Cc1ccccc1OCC(=O)NNC(=O)Nc1ccccc1,i,2%
CCN1C[C@@H]2[C@@H]3C(=O)N(Cc4ccccc4)C(=O)[C@@H]3[C@](CC)(C(=O)OC)N2C1=NC1CCCCC1,i,-3%
COc1ccc(C(CC(=O)Nc2ccc(C(C)=O)cc2)N2Cc3ccccc3C2=O)cc1 (centres undefined),-14%,-9%
COc1ccc(-c2ocnc2C(=O)Nc2ccc3c(c2)CCC3)cc1,i,-12%
CC(C)N(C)c1ncnc2c1ncn2[C@H]1CN(Cc2ccc(Cl)cc2)C[C@@H](CO)O1,-2%,3%
Cc1ccc(NC(=O)COC(=O)c2ccccc2Cl)cc1S(=O)(=O)N(C)C,-7%,-4%
N=c1nc(SCCC(=O)O)ss1,-13%,-1%
Cc1cc(S(=O)(=O)N2CCOCC2)ccc1NC(=O)c1ccc(F)cc1,-19%,-11%
CCOC(=O)C1CCN(C(=O)c2cc3ccc(OC)cc3[nH]2)CC1,-21%,-8%
CCS(=O)(=O)c1ccc2oc(SCC(=O)NCCC3=CCCCC3)nc2c1,/,-16%
CCNC(=O)C1(C)CCCN1C(=O)c1cc(OC)c(OC)c(OC)c1 (centres undefined),2%,-1%
CN1CCc2ccccc2CC1=O,-14%,-9%
COc1ccc(CN2C[C@@H](CO)O[C@@H](n3cnc4c(N5CCN(CCO)CC5)ncnc43)C2)cc1,-15%,0%
Cc1nc2ccccc2n1C(=O)c1ccc(Cl)cc1[N+](=O)[O-],-17%,-11%
CCc1cccc(C)c1NC(=O)C(CC)n1nc(C)c2c(C)n(-c3ccccc3)nc2c1=O (centres undefined),-13%,-9%
Cc1cccc2c1-c1sc(C(=O)N3CCN(c4ccc(F)cc4)CC3)cc1CO2,-12%,-8%

# Reprinted from the part before: 3 compounds, followed by the next part.
Molecule,Vaccinia mCherry,VACV Venus inh
Cc1nc2ccccc2n1C(=O)c1ccc(Cl)cc1[N+](=O)[O-],-17%,-11%
CCc1cccc(C)c1NC(=O)C(CC)n1nc(C)c2c(C)n(-c3ccccc3)nc2c1=O (centres undefined),-13%,-9%
Cc1cccc2c1-c1sc(C(=O)N3CCN(c4ccc(F)cc4)CC3)cc1CO2,-12%,-8%
Cc1cccc(N2CC(C)Cn3c2nc2c3c(=O)n(CC(=O)OCc3ccccc3)c(=O)n2C)c1 (centres undefined),/,-20%
Cc1cccc(N(Cc2ccccc2)C(=O)CCl)c1,-13%,-14%
CCN(CC(=O)Nc1c(F)cccc1F)C(=O)CCc1nc2ccccc2c(=O)[nH]1,-3%,8%
Cc1ccc(C(=O)c2c3ccc(C(F)(F)F)cc3[n+]([O-])n2CCCN)cc1,?,?
Nc1cc(=O)[nH]c(SCc2nc3ccccc3n2Cc2ccccc2)n1,i,-11%
Cc1nn(CC#N)c(=O)n1-c1ccc(F)cc1,-9%,-1%
COC(=O)/C=C1/SC(=NC(=O)c2ccc(F)cc2)NC1=O,i,-6%
Cc1nnsc1C(=O)NC1CCCc2c1cnn2-c1ccc(F)cc1F (centres undefined),-20%,-15%
O=[N+]([O-])c1cc(C(F)(F)F)ccc1NCCc1c[nH]c2ccc(O)cc12,i,-19%
COC(=O)CN(c1nc(C)cc(OC)n1)S(=O)(=O)c1ccc(C)cc1,/,-16%
Cc1ccccc1C(C(=O)NC1CCCCC1)N(C(=O)c1ccccn1)c1cccnc1 (centres undefined),3%,0%
CC(C)(C)c1ccc(NS(=O)(=O)c2ccc(N)cc2)cc1,-2%,-18%
CCOc1ccccc1C(=O)Nc1nnc(SCC(=O)Nc2cc(C)on2)s1,-10%,-9%
Cc1ccc(C(=O)N=c2sccn2C)cc1S(=O)(=O)N1CCOCC1,-1%,-21%
Cc1ccc(C2C=CC(C#N)=CN2Cc2ccccc2)cc1 (centres undefined),-15%,3%
CCOc1ccc(-c2nnc(SCC(=O)NCc3ccc(C)cc3)nc2-c2ccc(OCC)cc2)cc1,0%,-10%
Cc1nc2ncnn2c(N2CCCC(C(=O)Nc3ccccc3Br)C2)c1C (centres undefined),-19%,-17%
C[C@H]1COC(=O)[C@H](Cc2ccc(F)cc2)CC/C=C/C[C@@H](CC(=O)N(CCO)Cc2ccccc2)C(=O)N1,-26%,-22%
Clc1ccc2nc(CSc3nnc4ccccn34)cn2c1,/,6%
Cc1ccc(N2CC(C(=O)NCCN3CCOCC3)CC2=O)cc1C (centres undefined),-15%,9%

# (continued)
Molecule,Vaccinia mCherry,VACV Venus inh
Cc1cccc(-n2c(C)n[nH]c2=S)c1,-3%,-15%
O=C(CSc1ncn[nH]1)NCCCc1ccccc1,/,-9%
COc1cc2c(C(=O)NC3CCCCCC3)cn(C)c(=O)c2cc1OC,/,-8%
CC1Cc2ccccc2N1Cc1nc2scc(-c3cccs3)c2c(=O)[nH]1 (centres undefined),-7%,3%
COc1ccc(C2=NO[C@@H]3C(=O)N(Cc4ccccc4)C(=O)[C@H]23)c(OC)c1,i,6%
C[C@]12CCC3c4ccc(OS(=O)(=O)O)cc4CCC3C1CCC2=O (some centres undefined),-16%,-9%
OC(CNCc1ccco1)Cn1c2ccc(Br)cc2c2cc(Br)ccc21 (centres undefined),-18%,-17%
COc1ccc(CCN2C(=O)COc3ccccc3C2C(=O)Nc2ccc3c(c2)OCCO3)cc1OC (centres undefined),2%,4%
CCOC(=O)c1ccc(NC(=O)c2cc(C)nc3ccccc23)cc1,-14%,1%
Cc1ccc(S(=O)(=O)Nc2c(C)n(C)n(-c3ccccc3)c2=O)c(C)c1,-11%,4%
COc1ccc(CNC(=O)C2CCN(S(=O)(=O)c3ccc(-c4nn[nH]n4)cc3)CC2)cc1,/,-5%
O=C(Nc1c(F)cccc1F)C1CCN(C(=O)c2cccs2)CC1,i,-6%
O=C(CSc1cn(CC(=O)N2CCOCC2)c2ccccc12)Nc1ccccc1F,-8%,-10%
CCC(=O)N(c1nnc(SCC(=O)c2ccc[nH]2)s1)C1CC1,i,-2%
CCOc1ccc([N+](=O)[O-])cc1CNCCc1ccccc1,-10%,6%
COc1ccc(N2C(=O)CSC23C(=O)N(Cc2cccc(F)c2)c2ccccc23)cc1Cl (centres undefined),-7%,5%
Cc1snc(SCC(=O)c2ccc(F)cc2)c1C#N,-4%,-4%
CC(CCc1ccccc1)NC(=O)Cn1ncc2c3ccccc3n(Cc3cccc(Cl)c3)c2c1=O (centres undefined),-10%,-9%
CCNc1c(NC(=O)c2cc(OCC)c(OCC)c(OCC)c2)c(=O)oc2ccccc12,-1%,-1%
O=C(NC(Cc1ccccc1)C(=O)O)/C(=C/c1ccc([N+](=O)[O-])cc1)NC(=O)c1ccccc1Br (centres undefined),i,0%

# The list continues:
Molecule,Vaccinia mCherry,VACV Venus inh
CCOc1cc(C(=O)N2CCc3c([nH]c4ccccc34)C2c2ccccc2)cc(OCC)c1OCC (centres undefined),i,-14%
COc1cc2nc(CSc3nc(-c4ccc(F)cc4)cs3)[nH]c(=O)c2cc1OC,-7%,?
COc1ccc(-c2n[nH]c3c2C(c2ccc(Cl)cc2Cl)NC3=O)cc1 (centres undefined),?,?
COc1ccccc1CNC(=O)CSc1ccc(-c2cccc([N+](=O)[O-])c2)nn1,i,1%
CCOC(=O)N1CCN(C(=O)CSc2nnc(Cc3cccn3C)n2CCc2ccccc2)CC1,-9%,-8%
CCOc1ccc(N(Cc2ccccc2)C(=O)c2nc(S(C)(=O)=O)ncc2Cl)cc1,-20%[7.34 µM],-18%[7.34 µM]
O=C(c1ccc(OC(F)(F)F)cc1)c1ncc[nH]1,i,-7%
Cc1ccc([C@@H]2CC=C(C(=O)O)[C@H](c3ccc(Br)cc3)N2S(=O)(=O)c2ccc(C)cc2)cc1,i,-19%
COc1cccc2[nH]c3c(N4CCc5ccccc5C4)ncnc3c12,?,-25%[7.34 µM]
COc1ccc(C(=O)NNC(=O)c2cc(C)[nH]n2)cc1,i,-3%
S=C(NCCc1ccccc1)Nc1ccc(Cl)cc1Cl,-32%[1.46 µM],-24%
Cc1cccc(C)c1OCc1nc2c3c(-c4ccccc4)c(-c4ccccc4)oc3ncn2n1,i,-7%
Cc1cc(C)cc(NC(=O)C2CCCN(S(=O)(=O)c3ccc4[nH]c(=O)ccc4c3)C2)c1 (centres undefined),-6%,-3%
CC(C)CN(C(=O)COC(=O)c1ccc(Br)o1)c1c(N)n(Cc2ccccc2)c(=O)[nH]c1=O,-11%,-10%
CCc1cc(C(=O)Nc2c(C)nn(Cc3ccccc3Cl)c2C)no1,-13%,-7%
COc1ccc(C(=O)NNC(=O)c2cccc(F)c2)cc1,i,3%
COc1ccc(N2CCN(C(=O)CNC(=O)c3nn(-c4ccc(OC)cc4)c(=O)c4ccccc34)CC2)cc1,?,-2%
O=[N+]([O-])c1ccc(CN2CCN(c3nc4ccccc4s3)CC2)cc1,-15%,0%
c1ccc(-c2nnc(SCc3nnc(-c4cccs4)o3)o2)cc1,/,7.1µM*
CCc1ccc(OCC(=O)Nc2ccc(-c3cc4ccccc4oc3=O)c(OC)c2)cc1,-19%,?

# (cont.)
Molecule,Vaccinia mCherry,VACV Venus inh
Cc1ccc(OCC(=O)Nc2cccc(S(=O)(=O)N3CCOCC3)c2)c([N+](=O)[O-])n1,i,9%
COc1ccc2sc(N(Cc3cccnc3)C(=O)COc3ccccc3)nc2c1,i,-9%
CC(=O)Nc1ccc(S(=O)(=O)NCc2cn3c(C)csc3n2)cc1,i,1%
Cc1ccc(C(=O)NC2(C(F)(F)F)N=C(c3ccccc3)N(Cc3ccccc3)C2=O)cc1 (centres undefined),-5%,-6%
COc1cc(OC)cc(-c2c(-c3cccs3)c3cc(-c4cccc5[nH]ccc45)ccc3n2C)c1,?,-12%
CCc1nn(CC(=O)NCCCOC)c(=O)c2cc3occc3n12,-7%,-2%
COc1ccccc1NC(=S)N(Cc1ccccc1)Cc1ccccn1,-14%,-6%
Cc1c(NC(=O)COc2cccc(F)c2)c(=O)n(-c2ccccc2)n1C,-14%,-3%
NS(=O)(=O)c1cc(C2(O)NC(=O)c3ccccc32)ccc1Cl (centres undefined),-16%,-4%&-21%
Cc1cccc(C(=O)Nc2sc3c(c2C(=O)NCc2ccco2)CCCC3)c1,-19%,-15%
CCOc1ccc2nc(NC(=O)CSc3nc4c(c(=O)n(C)c(=O)n4C)n3C(C)C)sc2c1,-4%,-3%
C#CCSc1cc(C(F)(F)F)nc(-c2ccccn2)n1,i,-3%
Cc1ccc(SCC(=O)Nc2c(Br)cnn2C)cc1,-15%,-7%
N#Cc1c(-c2ccc(F)cc2)ccnc1N1CCOCC1,i,-13%
CCCCOc1ccc(CC(N)=O)cc1,i,-5%
COc1cccc(-c2nc(C(=O)NCC3CCCO3)cc3c2[nH]c2ccccc23)c1 (centres undefined),?,-17%
CCCCn1nnnc1C(c1ccccc1)N1CCN(Cc2c(F)cccc2Cl)CC1 (centres undefined),-9%,-7%
CCCS(=O)(=O)NCCc1cc2c(C)ccc(C)c2[nH]c1=O,i,-24%
O=C(CCC(=O)N1CCN(c2ccccc2F)CC1)N1CCN(c2ccc(F)cc2)CC1,-13%,-18%
NNC(=O)c1ccc(S(=O)(=O)N2CCc3ccccc32)cc1,i,-8%

# Single records, from the list above. Order of values: Vaccinia mCherry, VACV Venus inh
# Cc1ccc(OCC(=O)Nc2cccc(S(=O)(=O)N3CCOCC3)c2)c([N+](=O)[O-])n1 as listed: i, 9%
# CCCCn1nnnc1C(c1ccccc1)N1CCN(Cc2c(F)cccc2Cl)CC1 (centres undefined) as listed: -9%, -7%

# (listing goes on)
Molecule,Vaccinia mCherry,VACV Venus inh
N#C/C(=C(/O)COc1ccccc1)c1nc2ccccc2s1,-10%,-1%
CC1CC(C)CN(C(=O)COC(=O)CCc2nc3ccccc3c(=O)[nH]2)C1 (centres undefined),i,-6%
Cc1ccc(CNC(=O)CCC2CCCN(Cc3cccc4c3OCO4)C2)o1 (centres undefined),?,1%
CC1CCN(c2oc(Cc3cccc4ccccc34)nc2C#N)CC1,-28%[1.46 µM],-25%
C[C@@H]1CN([C@@H](C)CO)C(=O)c2cc(N(C)C)ccc2O[C@@H]1CN(C)Cc1ccncc1,i,-1%
COc1ccccc1Cn1nnc2c(=O)[nH]c(C3CCN(C(=O)c4ccc(F)cc4)CC3)nc21,-6%,-4%
O=S1c2ccccc2Sc2ccccc21,-3%,-9%
COCCN(CCOC)C(=O)COC(=O)c1cc([N+](=O)[O-])ccc1Cl,-2%[7.34 µM],4%[7.34 µM]
